Source: PubChem (several laboratories)
PABP FP inh: blocks human PABP binding to poly(A) RNA; P11940; fluorescence polarization; inhibition, % at 35 µM; hit rate 1% among 290,000;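 active = 50% or more with normal probe brightness, or confirmed in later tests; inconclusive = above 50% with abnormal brightness, or retests that disagree; inactive = below 50% or failed in later tests; about a fifth of its hits are not listed in these tables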;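 also: calls also rest on retests at 20 µM and on dose response follow-up; controls were probe without protein and protein plus probe with vehicle; some compounds called inactive have numbers as strong as hits; many hits fall short of the cut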
Target sequence (P11940 whole entry, looked up): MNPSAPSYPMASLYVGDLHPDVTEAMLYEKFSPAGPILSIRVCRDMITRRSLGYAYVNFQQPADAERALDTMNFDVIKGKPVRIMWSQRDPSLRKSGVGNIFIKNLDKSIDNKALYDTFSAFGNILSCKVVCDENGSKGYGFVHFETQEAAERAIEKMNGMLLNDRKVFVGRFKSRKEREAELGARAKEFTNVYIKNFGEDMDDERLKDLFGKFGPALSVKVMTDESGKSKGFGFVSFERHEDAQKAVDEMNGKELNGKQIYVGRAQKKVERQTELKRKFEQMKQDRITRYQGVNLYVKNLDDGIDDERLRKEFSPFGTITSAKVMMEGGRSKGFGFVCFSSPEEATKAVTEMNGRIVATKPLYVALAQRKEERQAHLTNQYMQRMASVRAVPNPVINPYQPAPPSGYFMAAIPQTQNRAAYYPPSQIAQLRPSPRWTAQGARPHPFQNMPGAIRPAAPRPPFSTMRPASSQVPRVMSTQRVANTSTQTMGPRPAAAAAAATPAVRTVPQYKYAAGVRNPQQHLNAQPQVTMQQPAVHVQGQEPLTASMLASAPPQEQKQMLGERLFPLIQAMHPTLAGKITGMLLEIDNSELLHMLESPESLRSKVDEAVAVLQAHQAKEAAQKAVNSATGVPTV
UUG fidelity: yeast start codon fidelity modulation. S. cerevisiae UUG-firefly luciferase reporter, luminescence/redox ratio. activity score, % at 18.7 µM. hit rate 0.13% among 350,000. AID 602363;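 active = replicate mean at a twofold rise or more, about +100% in these data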;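 also: firefly luciferase made from a UUG start codon reports start codon fidelity; reporter light over untreated wells divided by growth signal over untreated wells; some hits fall short of that in this replicate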
Rce1 inhib: yeast Ras-converting enzyme inhibition | Q03530 | yeast membranes, quenched prenylated peptide cleavage fluorescence | calls only | hit rate 0.27% among 290,000;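 active = fall in fluorescence gain of 50% or more versus controls, with final raw signal at or below 3038400; inconclusive = same 50% fall but final raw signal above 3038400; inactive = fall in fluorescence gain under 50%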;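 also: plate controls were neutral control wells for no effect and wells lacking membranes for full effect; tested at 10 µM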
Target sequence (Q03530 whole entry, looked up): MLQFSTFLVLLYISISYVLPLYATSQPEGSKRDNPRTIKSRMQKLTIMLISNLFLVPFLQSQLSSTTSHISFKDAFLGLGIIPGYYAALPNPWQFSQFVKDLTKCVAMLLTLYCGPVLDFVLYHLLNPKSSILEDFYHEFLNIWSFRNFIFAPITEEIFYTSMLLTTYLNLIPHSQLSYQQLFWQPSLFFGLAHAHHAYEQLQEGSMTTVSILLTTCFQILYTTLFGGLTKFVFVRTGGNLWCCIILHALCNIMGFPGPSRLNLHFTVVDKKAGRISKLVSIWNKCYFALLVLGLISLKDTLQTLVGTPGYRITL
MT1-MMP act inh: blocks activation of human MT1-MMP; P50281; HT1080 RFP-PRO-GFP cells, GFP/RFP ratio fluorescence, overnight; percent of plate control window, DMSO zero; GFP/RFP ratio change, % at 20 µM; hit rate 0.061% among 360,000; AID 651647;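 active = GFP/RFP ratio change of at least 30% with cell ATP level not reduced by more than half and red fluorescence within 50% of control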; also: strong numbers were not always called active
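Material: RFP-PRO-GFP reporter HT1080 cells. Dosing: single-point 20 µM compound, 1% DMSO. Controls: DMSO and RFP-L50D-GFP cell wells. Timing: cells overnight before dosing, compound overnight, 37 °C, 5% CO2. Measure: GFP/RFP fluorescence ratio.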
eIF4H FP inh: inhibitors of RNA binding by human eIF4H. inhibition, % at 35 µM. eIF4H fluorescence polarization binding assay. Q15056. AID 2012. hit rate 0.94% among 290,000;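 active = 50% or more with normal probe brightness, or confirmed in later tests; inconclusive = above 50% with abnormal brightness, or retests that disagree; inactive = below 50% or failed in later tests; about a fifth of its hits are not listed in these tables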;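 also: calls also rest on retests at 20 µM and on dose response follow-up; 0% = protein and probe with vehicle and 100% = probe without protein; strong numbers were not always called active; many hits fall short of the cut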
CSC inhib: cancer stem cell inhibition; cancer stem cell-like cells viability, luminescence; inhibition, % at 7.5 µM; hit rate 1.1% among 300,000; AID 2717;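 active = mean at 75% or more and at least half the replicates too; inconclusive = mean and replicates disagree; tested in HMLE shEcad cells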;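 also: 0% = median of negative and 100% = median of positive control wells; the first replicate is given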
HIV Env fusion: inhibitors of HIV Env-mediated cell fusion; HeLa-JRFL Env/CEM21 cell fusion, luciferase; hit rate 1.1% among 360,000; inhibition, % at 12.3 µM;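 active = mean replicate inhibition score of at least 50 and every replicate individually at or above 50; inconclusive = only one of the two criteria met; inactive = mean below 50 and not all replicates reaching 50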;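 also: 0% = plate neutral controls and 100% = maraviroc near 300 nM; one replicate is shown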
MT1-MMP act inh RFP: recorded beside MT1-MMP act inh, whose call it bears; RFP signal change, %; measured here: RFP expression control read;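 0 = vehicle wells; hits needed this value within 50% of zero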
* hit, by the source's call; i = inactive; u = inconclusive; x = not tested or not shown; & = joins results of further samples; [ ] = dose if it differs, or a comment.

SMILES	PABP FP inh	UUG fidelity	Rce1 inhib	MT1-MMP act inh	MT1-MMP act inh RFP	eIF4H FP inh	CSC inhib	HIV Env fusion
C/C(=N\NC(=O)c1nnn(-c2nonc2N)c1CN(C)c1ccccc1)c1cccs1	4	x	i	1	6	9	0	-8
CCN(c1ccccc1)c1nc2nonc2nc1NCCO	1	-9	i	-1	-3	-5	-36	-74
CCn1cc(-c2n[nH]c(=S)n2-c2ccc(C)cc2Br)c(=O)c2ccc(C)nc21	-11	-21	i	-3	0	1	-7	8
Cc1nc(N2CCN(c3ccccn3)CC2)c2c(C)c(C(=O)Nc3ccc(Cl)cc3)sc2n1	-8	21	i	-3	-11	-14	-15	17
Cc1cc2oc(=O)cc(CN3CCOCC3)c2cc1O	48	-11	i	0	-2	10	-5	-7
COc1ccc(Cl)cc1NC(=O)CN(C)C(=O)c1cccc(S(=O)(=O)N2CCN(C)CC2)c1	x	-19	x	-2	-4	x	10	x
CCCCSCCCNC(=O)c1ccc(CS(=O)(=O)c2ccc(OC)cc2)o1	5	-22	i	-7	-4	-4	-2	22
CC(=O)Nc1ccc(S(=O)(=O)N2CCC(C(=O)NC3CCCC3)CC2)cc1	-3	5	i	1	2	-4	-23	-1
CNC(=O)c1ccc(NC(=O)CN2c3cccc4cccc(c34)S2(=O)=O)cc1	x	-8	x	1	5	x	-7	x
CCO[C@@H]1OC(C(=O)N2CCN(Cc3ccc4c(c3)OCO4)CC2)=C[C@H](c2csc3ccccc23)[C@H]1CCCO	6	-13&-2	i	-2	-8	-11	8	-2[16.7 µM]
Cc1cccc(-c2cc(C(=O)Nc3c(C)n(C)n(-c4ccccc4)c3=O)c3ccccc3n2)c1	0	-5	x	-2	-6	-2	13	-150
O=C(CSc1n[nH]c(-c2ccccc2Cl)n1)NCc1cccc(C(=O)O)c1	4	-13	i	-15	-7	6	9	9
CN(C)c1ccc(NC(=O)COC(=O)Cn2nnc3ccccc32)cc1	-7	x	i	0	0	-13	-2	-3
CCc1ccc(OCC(=O)OCC(=O)c2c(N)n(C)c(=O)n(C)c2=O)cc1	6	x	i	3	1	-2	-14	14
COc1cccc(C(O)c2cnc(C(C)C)n2C)c1 (stereo not given)	5	x	i	2	2	-5	-1	6
CCOC(=O)C1=C(C)OC(N)=C(C#N)C1c1c(C)nn(-c2ccc(C)cc2)c1Cl (stereo not given)	-10	x	i	x	x	3	x	x
CC1(C(=O)Nc2nccs2)Cc2ccccc2C(=O)O1 (stereo not given)	-14	15	i	-2	2	-3	3	-16
CCOc1ccc(/C=C2\CCC(C3CCCC3)C2=O)cc1 (stereo not given)	-8	-16	i	-3	-3	4	-9	-16
CCOC(=O)N1CCN(c2nc(-c3cccs3)cc(C(F)(F)F)n2)CC1	1	-20	i	-3	-8	6	4	-88
Cc1ccc(NS(=O)(=O)c2cccc(C(=O)NNC(=O)NC3CCCCC3)c2)c(C)c1	-3	3	i	3	-1	4	-15	-15
CCOC(=O)c1ccc(N=Nc2c(C)[nH]n(-c3ccccc3)c2=O)cc1	2	-15	i	3	-1	-2	-3	-7
CCOC(=O)/C=C1\SCC(=O)N1CCOc1cccc(Br)c1	1	7	i	-4	-2	-4	7	1
COc1ccc(N2C(=O)C(Cl)=C(N3CCN(Cc4ccccc4)CC3)C2=O)cc1	8	2	i	0	-4	3	x	x
CCCCOC(=O)Nc1ccc(N(C)C)cc1	0	x	i	3	3	14	-7	-17
O=C(Nc1cccc(C(=O)N2CCOCC2)c1)c1ccccc1Br	6	5	i	-2	2	-7	-3	-4
O=C(C[C@@H]1CC[C@@H](NC(=O)Nc2cccc(F)c2)[C@@H](CO)O1)NCC1CCCCC1	x	-5	x	-1	3	x	x	-10[16.7 µM]
Cn1cc(C(=O)NC2CCCCCCC2)c(=O)c2cc(S(=O)(=O)N3CCCC3)ccc21	-6	-6	i	-6	-5	-5	-14	31
CCCNC(=O)c1ccc(-c2nn(C)c(=O)c3ccccc23)cc1	4	-6	i	4	3	2	-1	-6
CC[C@]1(C(=O)OC)[C@H]2C(=O)N(Cc3ccccc3)C(=O)[C@H]2[C@H]2CN=C(SCc3ccc(C(=O)OC)cc3)N21	x	-6	x	0	0	x	x	32
COc1ccc(C(=O)Cn2ccsc2=NC(C)=O)cc1	4	x	i	0	5	-2	-11	26
CCS(=O)(=O)NC(=O)C1(C)CCN1C(=O)C1(c2ccc(Cl)cc2)CC1 (stereo not given)	x	0	x	-4	4	x	x	5
C=CCn1c(=N)c(C(=O)NCCCOC)cc2c(=O)n3ccccc3nc21	-3	0	u	-3	-5	6	2	-263
Brc1cccc(OCCN2CCCCC2)c1	4	x	i	3	4	14	7	-10
CCOc1cc(/C=N\NC(=O)c2ccc(C)nc2)ccc1OC(=O)c1ccc(F)cc1	5	-12	i	3	4	-2	-4	-23
CCC(=O)NNC(=O)CCC(=O)Nc1cccc(Cl)c1C	0	-4	i	-3	4	30	-3	7
COc1ccc(NC(=O)CN(C)C(=O)c2sc3cc(Cl)ccc3c2Cl)cc1	x	-18	i	4	-1	x	12	x

A draw from above in order of length of the SMILES, low to high.
SMILES	PABP FP inh	UUG fidelity	Rce1 inhib	MT1-MMP act inh	MT1-MMP act inh RFP	eIF4H FP inh	CSC inhib	HIV Env fusion
Brc1cccc(OCCN2CCCCC2)c1	4	x	i	3	4	14	7	-10
COc1ccc(NC(=O)CN(C)C(=O)c2sc3cc(Cl)ccc3c2Cl)cc1	x	-18	i	4	-1	x	12	x
CCOc1cc(/C=N\NC(=O)c2ccc(C)nc2)ccc1OC(=O)c1ccc(F)cc1	5	-12	i	3	4	-2	-4	-23

More records:
SMILES	PABP FP inh	UUG fidelity	Rce1 inhib	MT1-MMP act inh	MT1-MMP act inh RFP	eIF4H FP inh	CSC inhib	HIV Env fusion
CCc1ccccc1N1C(=O)CC(Sc2nccc(C)n2)C1=O (stereo not given)	-12	-12	i	-3	3	-9	-11	-1
CCOC(=O)C1NN=C(C(=O)c2ccc(C)cc2)C1c1ccc(C)cc1 (stereo not given)	-1	x	i	-4	-5	-1	-1	3
Oc1ccccc1/C=N/n1c(-c2ccccc2)n[nH]c1=S	-5	-20	i	-4	-1	-13	-12	-7
Cc1ccc(-c2nn(-c3ccccc3)c3[nH]c(=O)c(CNCc4ccccc4)cc23)cc1	0	-19	x	-13	-5	7	53	x
CCCCNC(=O)CSc1nc(O)cc(=O)n1C1CCCC1	-6	-11	i	0	0	-5	-16	17
c1ccc(CCNc2ncnc3c2cnn3-c2ccccc2)cc1	4	-9	i	5	-2	0	0	x
O=C(OCc1c(F)cccc1Cl)c1cccnc1Cl	-8	8	i	1	-1	2	-3	1
O=C1c2cccnc2C(=O)N1CO	-12	-22	i	3	2	-4	-12	x
CCc1nnc2n1N=C(c1ccc(Br)cc1)CS2	-3	-16	i	2	4	-8	7	-3
O=C1C(=O)N(CC2COc3ccccc3O2)c2ccccc21 (stereo not given)	21	-12	i	-5	0	0	9	13
CCN1CCCC1CNC1=NCCCCC1 (stereo not given)	7	9	i	7	9	-3	-11	7
O=C(CNC(=O)c1nc[nH]c1C(=O)N1CCNCC1)OCc1ccccc1	x	-5	i	6	5	x	-10	27
CN(CC(=O)Nc1c(Cl)cccc1Cl)C(=O)c1ccc(NS(=O)(=O)c2ccc3[nH]c(=O)[nH]c3c2)cc1	x	-6	x	-3	3	x	x	5
O=C(c1cccc(F)c1)N1CCC(c2nc3ccccc3s2)CC1	5	-11	i	4	1	9	-3	15
Cc1cc(C(=O)Cn2cc(C(F)(F)F)ccc2=O)c(C)n1CC1CCCO1 (stereo not given)	x	-10	x	4	2	x	8	x
Cc1ccc(NS(=O)(=O)c2sc3ccc(Cl)cc3c2C)cc1	-3	-23	i	3	-9	1	98*	7
O=C(O)c1ccc2c(c1)C(=O)N([C@H](Cc1cccc3ccccc13)C(=O)O)C2=O	x	-3	x	-1	0	x	x	25
O=C(O)c1ccc(NS(=O)(=O)c2ccc(Cl)cc2)cc1	1	22	i	-1	-1	2	-16	6
C[C@]12C=CC(=O)C=C1CC[C@@H]1[C@@H]2[C@@H](O)C[C@@]2(C)[C@H]1CC[C@]2(O)C(=O)COC(=O)CCC(=O)NCCc1ccc(O)cc1	-5	-2	i	2	5	-1	1	i
O=C(COC(=O)c1ncc(Cl)c(Cl)c1Cl)Nc1ccc(Cl)cn1	x	x	i	-7	1	x	-5	5
O=C(CSc1nnc(NC(=O)c2ccc(F)cc2)s1)NC1CC1	6	-12	x	2	2	-10	-7	5
N#CCCn1cc(/C=N/O)c(-c2cccc([N+](=O)[O-])c2)n1	-14	x	i	-1	6	-1	-2	8
Cc1ccc(NC(=O)c2ccco2)c(NC(=O)CN2C(=O)c3ccccc3C2=O)c1	5	-8	i	-1	5	-9	11	x
Cn1c(=O)c2nc(SCCO)n(C)c2n(C)c1=O	x	5	x	2	3	x	x	28
CCC1C2CN(C(C)=O)CC=C2C(C#N)=C(N)C1(C#N)C#N (stereo not given)	20	x	i	-15	1	14	-8	-20
CS(=O)(=O)c1ccc(-c2csc(-c3cccnc3)n2)cc1	-5	-8	i	-1	3	-3	7	-36
COc1ccc(CC(=O)N2CCN(S(=O)(=O)c3cc(Cl)ccc3Cl)CC2)cc1	x	7	x	0	1	x	x	-2
CCC(=O)N1CCC1(C)C(=O)Nc1ccc2c(c1)OCO2 (stereo not given)	x	-24	x	0	4	x	x	16
Cc1cc(S(N)(=O)=O)c(N)c(S(N)(=O)=O)c1	2	-22	i	-2	-1	2	6	5
CCOC(=O)CSc1nc2nc(C)cc(C)n2n1	-6	-19	i	3	6	-14	11	6
CN(C)S(=O)(=O)c1ccc(NC(=O)CN2CCCc3ccccc32)cc1	-1	-37	i	-14	10	-7	-14	8
CCN(CC)c1ccc(C2C(C(=O)OCCOC(C)C)=C(C)NC3=C2C(=O)CCC3)cc1 (stereo not given)	-8	4	i	-12	-9	-5	x	x
CC(C)n1c(S(=O)(=O)O)nc2ccccc21	5	7	i	0	2	-6	-7	x
CS(=O)(=O)NCc1nnc(SCC(=O)NC2CCCCC2)n1-c1ccc(F)cc1	1	-3	i	1	-1	10	-11	x
Cc1cccc(OC2CCN(Cc3c(C(=O)N4CCCC4)nc4ccccn34)CC2)c1	-4	x	x	-3	-2	-12	-10	-10
O=C(Nc1nc2c(F)cc(F)cc2s1)C1COc2ccccc2O1 (stereo not given)	-2	-14	i	-4	-4	0	10	-32
Nc1nnc(SCC(=O)N2CCc3ccccc3C2)s1	-8	-13	i	-2	-1	4	-4	2
O=C(Nc1cccc(-c2nn[nH]n2)c1)c1ccc(Br)s1	16	-19	i	-1	3	4	-6	-19
CCCCCC(=O)Nc1ccccc1N1CCN(c2ccccc2)CC1	-1	31	i	-12	-9	7	25	25
CCCC(C(=O)NCc1ccco1)N(C(=O)CNS(=O)(=O)c1ccccc1)C1CCCC1 (stereo not given)	1	31	i	-2	0	-13	0	x
CN(C)C(=O)COc1ccc(S(=O)(=O)c2ccc(OCC(=O)N(C)C)cc2)cc1	11	-12	i	0	3	9	-5	6
CCS(=O)(=O)c1nc(S(=O)(=O)c2ccc(Cl)cc2)c(NCCCN2CCCC2=O)s1	10	23	i	7	45	-7	8	3
Cc1ccc(C)c(NC(=O)CSc2nnc(-c3ccccc3C)o2)c1	-8	-19	i	4	3	-10	-6	-52
COCCCN1C(=O)C(=O)/C(=C(/O)c2ccc(OC)cc2)C12C(=O)N(C)c1ccccc12 (stereo not given)	5	-8	i	0	5	0	-1	4
COc1ccccc1COCC(O)CN1CCCCC1CO (stereo not given)	0	-10	i	4	5	3	-2	4

Only part of the results is shown. The share of hits here may be higher or lower than overall.
